NPYLR7 agonist – activates Aedes aegypti NPYLR7 receptor; 270,000 tested, 0.15% active; activation, % at 10 µM; AID 1259423; HEK293T NPYLR7/Galpha15, GCaMP6s calcium fluorescence; in the data active = activation above about 40%;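 also: 0% = vehicle and 100% = reference agonist at the receptor; some compounds past the cut are filed as inactive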
NPYLR7 agonist max-min – second read-out of NPYLR7 agonist, no call of its own (marks repeat the call); activation, %; measured here: Max-Min RFU normalised activation; some inactives read as strong as hits;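 span of the calcium signal over five minutes; 0% = vehicle and 100% = native peptide agonist; compound fluorescence can raise it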
Starred values were filed as active, the others as inactive; & = joins results of further samples. A portion of the library; count on the stated rates, not on these rows.

SMILES,NPYLR7 agonist,NPYLR7 agonist max-min
CN(C)n1ccc2c(nnc3c(-c4ccc(Cl)cc4)cnn32)c1=O,0,-2
N#CCCN(CC1CCCO1)C(=O)c1cc2ccccc2[nH]1 (stereo not given),12,8
CCCCN(C(C)=O)c1c(CC)nc2ccc(C(=O)N(C)Cc3ccco3)cn12,-8,-10
Cc1cc(=O)n2c(n1)NC(N1CCCCC1)=NC2C1CC=CCC1 (stereo not given),4,0
CC(c1nccs1)N(C)Cc1nc(-c2ccco2)no1 (stereo not given),4,1
COCc1nn2c(nnc3c(=O)n(Cc4ccc(OC)cc4)ccc32)c1-c1ccc(F)cc1,-6,3
O=C(NCc1c(-c2ccc(Cl)cc2)nc2n1CCS2)c1cccnc1,-2,-3
COCC(NC(=O)c1cc(-c2ccccc2Cl)oc1C)c1ccccn1 (stereo not given),13,6
CC1CCCCN1Cc1nc2c(c(=O)n(C)c(=O)n2C)n1Cc1c(F)cccc1Cl (stereo not given),-5,-9
Cn1c(COc2cccc3ccccc23)nc2ccccc21,6,9

Continued.
SMILES,NPYLR7 agonist,NPYLR7 agonist max-min
O=C(NCC1CCCN(C(=O)Nc2ccccc2-c2ccccc2)C1)c1ccco1 (stereo not given),1,1
O=C(Cn1nnc(-c2cccs2)n1)c1ccc[nH]1,-3,-5
CC1CCN(CCCNS(=O)(=O)c2ccc(Cl)cc2F)CC1,0,7
COCOc1cccc(CN2CCC2(C)C(=O)Nc2cnc3ccccc3c2)c1 (stereo not given),2,-1
CCc1nc(N2CCN(S(=O)(=O)c3ccc(F)cc3)CC2)c2ccc(Cl)cc2n1,-2,6
CCCCN1C(=O)NC(=O)/C(=C/c2ccc(N(C)C)cc2)C1=O,-5,-8
O=c1ccn([C@@H]2O[C@H](COP(=O)(O)OP(=O)(O)OP(=O)(O)O)[C@@H](O)[C@H]2O)c(=O)[nH]1,-9,-16
CC(=O)Nc1ccc(NC(=O)CSc2ccc(-c3ccc(-n4ccnc4)cc3)nn2)cc1,-11,-4
CCOCCCn1c(SCc2nc(-c3cccc(F)c3)oc2C)nc2cc(C(=O)OCC)ccc21,3,-2
Cc1ccc(-n2c(SCC(=O)NC3CCCC3)nc3ccccc3c2=O)nc1,-7,17

The list continues:
SMILES,NPYLR7 agonist,NPYLR7 agonist max-min
Cc1cc(=O)oc2cc(NC(=S)NNC(=O)Cc3cccs3)ccc12,-12,-19
CSc1ccc(C=NN2CCN(C3c4ccccc4-c4ccccc43)CC2)cc1,4,2
Cc1ccc2cc(CCNC(=O)C3CC3)c(=O)[nH]c2c1C,0,-4
O=C(CN[C@H]1CCCN(Cc2ccccc2)C1)Nc1cnccn1,2,2
COc1ccccc1C1CN(Cc2c(C)nn(C)c2Cl)Cc2ccccc2O1 (stereo not given),7,1
Cc1cc(C)cc(-n2c(C)c(C)n3c4c(=O)n(CCCO)c(=O)n(C)c4nc23)c1,3,0
Cc1ccc(-n2nnnc2-c2cnc(-c3cnccn3)nc2C(F)(F)F)cc1,6,2
CC(C)CSc1nnc(CCNC(=O)C2CC2)n1C,3,1
N#Cc1cccc(CS(=O)(=O)c2nccn2-c2ccccc2)c1,3,1
O=C(COC(=O)c1ccc2c(c1Cl)C(=O)c1ccccc1C2=O)NC1CC1,-5,-6

Next records follow.
SMILES,NPYLR7 agonist,NPYLR7 agonist max-min
CC1CN(C(=O)c2ccc(CNC(=O)c3cccs3)cc2)CC(C)O1 (stereo not given),7,3
CCC(=O)Nc1c(-c2ccc(Cl)cc2)nc2cc(C)ccn12,-4,4
CC(NC(=O)NC1CCN(C)CC1)c1nc(C(C)(C)C)cs1 (stereo not given),-7,-6
Cc1c(C(=O)N2CCN(C(c3ccccc3)c3ccc(F)cc3)CC2)oc2ccccc12 (stereo not given),23,8
CC(C)(C)n1ncc(Oc2ccc(CO/N=C(/C#N)c3ccccc3)cc2)c(Cl)c1=O,9,7
CCCSC(N)=NN=Cc1cc(C)cc(C=NN=C(N)SCCC)c1O,4,4
Cc1nn(C)c(C)c1C(=O)NC1CCN(C(=O)c2ccccc2)CC1,0,-3
Cc1ccsc1CN(C)C(=O)c1cc(Cn2ccnc2C(C)C)[nH]n1,0,0
Cc1nc2sccn2c1-c1nnc(SCC(=O)N2CCCc3ccccc32)n1C,-7,-6
COc1ccccc1-c1nc2ccc(C)cn2c1NC(=O)C(C)(C)C,-3,2

(listing goes on)
SMILES,NPYLR7 agonist,NPYLR7 agonist max-min
COc1ccc(CC(=O)N(CC(=O)Nc2cc(-c3ccccc3)nn2-c2ccc(F)cc2)Cc2ccco2)cc1,-2,5
COc1ccc(Oc2cc(C)nc(SCc3cccc([N+](=O)[O-])c3)n2)cc1,-9,-7
COc1ccc(C(=O)N/N=c2\oc3ccccc3cc2-c2nc3ccccc3[nH]2)cc1,-6,-10
O=C(CCn1c(=O)[nH]c2ccccc21)N1C[C@@H]2[C@@H]3CC[C@@H](C3)[C@@H]2C1,12,8
Cn1cc(C2=C(c3ccc(Cl)cc3Cl)C(=O)NC2=O)c2ccccc21,4,-28
O=C1CSC(c2ccco2)N1Cc1ccccc1 (stereo not given),-8,-13
c1cncc(CN(Cc2nc3c(s2)CCCC3)CC2CCCN(C3CCCCC3)C2)c1 (stereo not given),5,1
COc1ccc(NC(=O)C2CCN(C(=O)[C@@H]3CCCN3C(=O)c3cc(C(C)(C)C)oc3C)CC2)cc1,6,16
CN(C)CC1(O)CCCN(C(=O)c2cccc3cc[nH]c23)C1 (stereo not given),0,-2
CC(c1ccccc1)N1CCN(C(=O)CCC2CCCC2)CC1 (stereo not given),-3,10

Additional structures follow:
SMILES,NPYLR7 agonist,NPYLR7 agonist max-min
CCOc1ccccc1-c1nc(COC(=O)c2nnn(-c3ccc(OC)c(Cl)c3)c2C)c(C)o1,7,-3
CCCCc1ccc(CC(=O)NCCN2CCCN(C)CC2)cc1,2,1
CCC(C)N(Cc1cc(NS(=O)(=O)c2ccc(OC)cc2)ccc1N(C)C)C(=O)COC (stereo not given),1,2
C1=CC2CC1C1C2C1(c1ccccc1)c1ccccc1 (stereo not given),3,3
CC(C)(O)C#Cc1ccc(C(=O)N2[C@@H]3CC[C@H]2CNC(=O)C3)cc1,3,0
Cc1ccc(C(O)=C2C(=O)C(=O)N(CCCN(C)C)C2c2ccccc2)cc1 (stereo not given),14,13
O=C(c1cc(COc2ccc3c(c2)CCCC3)on1)N1C[C@H]2CC[C@H]1C2,2,-2
Cc1cc(OCC(=O)n2ncc(C#N)c2N)c(C(C)C)cc1Cl,14,10
CC(C)CNCc1cccc(OS(=O)(=O)c2ccc(F)cc2)c1,4,5
Oc1ccc(C(O)CNc2nccc(CCC(F)(F)F)n2)cc1 (stereo not given),2,1

(further entries)
SMILES,NPYLR7 agonist,NPYLR7 agonist max-min
Clc1ccc2c(NC3(c4ccccc4)CCC3)ncnc2c1,-3,-6
Cc1sc2nc(-c3cccs3)nc(NCCCNC(C)(C)C)c2c1C,0,0
O=C(CCc1ncc(-c2c(F)cccc2F)o1)NCCCN1CCOCC1,9,4
COc1cc(-c2nc3ccc(Br)cn3c2NC2CCCCC2)ccc1OC(=O)c1ccccc1OC,13,14
Cc1cccc2c(N=NC(=O)c3ccccn3)c(O)[nH]c12,20,9
Cn1cccc1-c1cc(C(=O)NCc2cccnc2Oc2ccccc2)[nH]n1,-2,-2
CN1C(=O)C2(N=C(N)NC(Nc3ccccc3)=N2)c2ccccc21 (stereo not given),-1,-1
O=C(c1cccnc1)N1CCN(S(=O)(=O)c2ccc(F)cc2)CC1,-3,0
CCn1cc(S(=O)(=O)c2ccccc2)c(=O)c2cc(F)c(F)cc21,-6,-11
FC(F)(F)c1cc(NCCn2ncnn2)nc(-c2cccnc2)n1,5,2

Already shown: 14 of the compounds above.
SMILES,NPYLR7 agonist,NPYLR7 agonist max-min
C1=CC2CC1C1C2C1(c1ccccc1)c1ccccc1 (stereo not given),3,3
CC(C)(O)C#Cc1ccc(C(=O)N2[C@@H]3CC[C@H]2CNC(=O)C3)cc1,3,0
Cc1ccc(C(O)=C2C(=O)C(=O)N(CCCN(C)C)C2c2ccccc2)cc1 (stereo not given),14,13
O=C(c1cc(COc2ccc3c(c2)CCCC3)on1)N1C[C@H]2CC[C@H]1C2,2,-2
Cc1cc(OCC(=O)n2ncc(C#N)c2N)c(C(C)C)cc1Cl,14,10
CC(C)CNCc1cccc(OS(=O)(=O)c2ccc(F)cc2)c1,4,5
Oc1ccc(C(O)CNc2nccc(CCC(F)(F)F)n2)cc1 (stereo not given),2,1
Clc1ccc2c(NC3(c4ccccc4)CCC3)ncnc2c1,-3,-6
Cc1sc2nc(-c3cccs3)nc(NCCCNC(C)(C)C)c2c1C,0,0
O=C(CCc1ncc(-c2c(F)cccc2F)o1)NCCCN1CCOCC1,9,4
COc1cc(-c2nc3ccc(Br)cn3c2NC2CCCCC2)ccc1OC(=O)c1ccccc1OC,13,14
Cc1cccc2c(N=NC(=O)c3ccccn3)c(O)[nH]c12,20,9
Cn1cccc1-c1cc(C(=O)NCc2cccnc2Oc2ccccc2)[nH]n1,-2,-2
CN1C(=O)C2(N=C(N)NC(Nc3ccccc3)=N2)c2ccccc21 (stereo not given),-1,-1

Next section
SMILES,NPYLR7 agonist,NPYLR7 agonist max-min
Cc1nc(C)c(C(=O)NC(C)(C)CC(C)(C)C)s1,0,-4
CSc1nnc(SCc2cc(C)no2)s1,13,10
CCOC(=O)[C@@H]1CCCC[C@@H]1NC(=O)c1ccc2nc(-c3ccccc3)c(-c3ccccc3)nc2c1,-6,-14
O=S(=O)(c1ccc2oc(-c3cccnc3)nc2c1)c1ccc2oc(-c3cccnc3)nc2c1,11,5
COc1ccc(CNC(=O)CCC2CCCN(C(=O)c3cc(C)[nH]n3)C2)c(OC)c1 (stereo not given),3,0
O=C(CCC(=O)c1ccc(F)cc1)NC1CCCN(C2CCCCCC2)C1 (stereo not given),-3,-9
O=C(CCOc1ccccc1)Nc1ccnn1C1CCN(C(=O)C2CCCC2)CC1,18,8
CCCCCOc1ccc(C(=O)N2CCc3c([nH]c4ccccc34)C2)cc1OCCCCC,-7,-10
Cc1ccccc1CN1C(=O)C(C)Sc2ccc(C(F)(F)F)cc21 (stereo not given),3,1
Cc1cc2cc(C(C)C)cc(CO)c2cc1O,-9,-13

(continued)
SMILES,NPYLR7 agonist,NPYLR7 agonist max-min
O=c1ccc2cc(S(=O)(=O)NCc3ccco3)ccc2o1,-4,-3
CC(C)(C)c1ccc(-c2csc3nc4c5ccccc5c(N5CCOCC5)nn4c(=O)c23)cc1,-1,-6
COc1ccc(C=C2SC(=S)N(CCN3CCOCC3)C2=O)cc1,0,25
C[C@@H]1CCCN1CCC1Cc2cc(-c3ccc(C#N)cc3)ccc2O1 (stereo not given in full),9&7,14&2
Cn1ncc2c1ncn1c(-c3ccccc3)nnc21,6,3
Cc1ccccc1CC(=O)N1CC(c2ccccn2)C1,-3,-3
Cc1nnc(NC(=O)C2(NC(=O)c3ccc(Br)cc3)CCCCC2)s1,11,8
CCn1c(C2CCCN(Cc3cnc(N4CCCCC4)nc3)C2)n[nH]c1=O (stereo not given),1,0
CCN1Cc2ccccc2CC1C(=O)N(C)Cc1ccc2c(c1)OCO2 (stereo not given),13,10
Cc1nc2scc(C)n2c1C=NN1CCOCC1,6,3

Next section.
SMILES,NPYLR7 agonist,NPYLR7 agonist max-min
C#CCn1cnc2c(nnn2-c2ccc(Cl)cc2)c1=O,-4,-9
CCc1ccc(CN(C)Cc2nc(-c3ccc(C(F)(F)F)cc3)no2)nc1,1,-4
CC(=O)Nc1ccc(S(=O)(=O)N2CCC(NC(=O)CCc3ccco3)CC2)cc1,5,3
CNC(=O)CS(=O)(=O)Cc1csc(CCc2ccccc2)n1,8,5
O=C(CN1CCC(C(=O)N2CCCC2)CC1)Nc1cccc(Cl)c1Cl,3,14
CO[C@@H]1CO[C@H]2[C@@H]1OC[C@@H]2NCc1ccc(N(C)C)cc1,-9,-14
COc1ccc(CN(Cc2cccc(C(F)(F)F)c2)Cc2nc(C(=O)N3CCOCC3)co2)c(OC)c1,13,-1
COCC1CCCN(C(=O)c2coc(CN3CCN(Cc4ccccc4)CC3)n2)C1 (stereo not given),-2,-2
C=CCNC(=O)c1c(O)nc2sccn2c1=O,-2,9
COc1ccc(CCNC(=O)c2c(C)noc2-c2ccccc2OC)cn1,1,-2

More structures follow.
SMILES,NPYLR7 agonist,NPYLR7 agonist max-min
CCN(Cc1nc2cc(Cl)ccc2c(=O)[nH]1)C(=O)C(C)Oc1ccc(F)cc1 (stereo not given),5,12
C=Cc1ccc(CN2C(=O)CON=C2c2ccco2)cc1,3,-2
C[C@H]1[C@@H](OC(=O)CCC(=O)O)O[C@@H]2OC3(C)CC[C@H]4[C@H](C)CC[C@@H]1[C@@]24OO3,-10,-15
CCN1CCN(C(=O)CCC2CCN(C(=O)CCN3CCCC3=O)CC2)CC1,5,1
CC(C)c1ccc(/C=C2\N=C(c3ccc4c(c3)OCO4)OC2=O)cc1,-6,-3
N#Cc1ccccc1S(=O)(=O)N1C[C@@H]2C[C@H](C1)c1ccc(-c3ccccc3CN3CCOCC3)c(=O)n1C2,-14,-16
O=C(Nc1ccc(F)c(F)c1)C1(c2ccccc2)CC1,-5,-4
O=C(NCC(O)COc1ccc(F)cc1)c1cnc2ccsc2c1 (stereo not given),0,4
COC(=O)CNC(=O)C1CC1,5,11
CCc1nc2c(OCc3ccc(F)cc3)cccn2c1N(C)C(=O)c1ccco1,4,-10
Cc1ccccc1-c1cc(NC(=O)NCCCOC(C)C)on1,3,2
O=C(O)C1CCCN1S(=O)(=O)c1ccc(F)c(Cl)c1 (stereo not given),8,6
